KAT2A inh – inhibitors of human GCN5L2 histone acetyltransferase; Potency, µM (top dose mostly 58.9 µM), for the others: at the top dose activity change, negative = inhibition, hits mostly inhibitors; Q92830; actives 0.21% (n = 390,000); AID 504327; GCN5L2 HAT assay, ThioGlo1 CoA-SH fluorescence
Target sequence (Q92830 whole entry, looked up): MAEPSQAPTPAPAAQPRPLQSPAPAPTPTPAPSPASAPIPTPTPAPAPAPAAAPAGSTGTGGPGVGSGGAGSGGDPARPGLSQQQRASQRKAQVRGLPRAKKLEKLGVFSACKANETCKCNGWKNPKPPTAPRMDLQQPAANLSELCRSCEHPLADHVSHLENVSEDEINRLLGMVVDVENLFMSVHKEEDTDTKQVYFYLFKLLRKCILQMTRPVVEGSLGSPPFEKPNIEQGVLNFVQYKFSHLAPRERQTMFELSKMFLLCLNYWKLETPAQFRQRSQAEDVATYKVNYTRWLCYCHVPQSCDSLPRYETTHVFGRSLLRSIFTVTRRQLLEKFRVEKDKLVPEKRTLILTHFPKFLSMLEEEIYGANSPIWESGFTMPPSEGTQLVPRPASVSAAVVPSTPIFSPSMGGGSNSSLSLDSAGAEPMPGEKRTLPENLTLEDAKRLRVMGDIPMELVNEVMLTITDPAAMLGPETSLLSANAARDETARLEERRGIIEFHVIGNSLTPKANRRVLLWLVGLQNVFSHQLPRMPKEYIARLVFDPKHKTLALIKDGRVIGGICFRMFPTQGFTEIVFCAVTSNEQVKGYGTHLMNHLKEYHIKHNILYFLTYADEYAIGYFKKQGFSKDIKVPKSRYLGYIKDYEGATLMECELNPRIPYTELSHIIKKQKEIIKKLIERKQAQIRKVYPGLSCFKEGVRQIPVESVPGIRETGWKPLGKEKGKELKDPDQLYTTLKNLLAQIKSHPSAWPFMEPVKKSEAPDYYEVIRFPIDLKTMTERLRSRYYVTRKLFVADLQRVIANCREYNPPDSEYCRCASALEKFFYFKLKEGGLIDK
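GCN5L2 (20 nM) in 50mM HEPES pH 7.5, 0.1mM EDTA, 0.01% Tween-20 preincubated 15 min with compounds at room temperature. Reaction started with H3(1-25) 75uM, acetyl-CoA 70uM, ThioGlo1 50uM; CoA-thiol fluorescence (Ex340/Em540) read at 0 and 20 min.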
FEN1 inh – human FEN1 inhibition; P39748; Recombinant FEN1 flap cleavage, fluorescence, 15 min; Potency, µM (doses to about 114 µM), for inactives: top-dose activity change, negative = inhibition, hits mostly inhibitors; actives 0.35% (n = 390,000); AID 588795; also: nearly all actives have a fitted effect of over 65% in size
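FEN1 at 10 nM, compound pretreatment for 15 min (room temperature), 50 nM final substrate to initiate; endpoint reads at 0 and 15 min; DMSO-only plates used as vehicle background.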
* hit, by the source's call; ? = inconclusive; · = not tested or not shown. Calls follow the shape of the dose curve; as a rule, active = well fitted curve in the direction sought with a large enough effect; inconclusive = small, poorly fitted or top-dose-only effect, or another doubt; inactive = no such curve, though single readings can be large; an effect the other way counts as inactive or inconclusive. % is scaled to controls: 0 for no effect and ±100 for the full control effect; potency is read from the fitted curve at half-maximal effect.

SMILES	KAT2A inh	FEN1 inh
CCOc1ccccc1-n1c(SCC(=O)NC(C)CC)nnc1-c1ccoc1C (stereo not drawn)	-3%	-11%
O=C(Nc1ccncc1)c1ccc([N+](=O)[O-])cc1Cl	-9%	?
Cc1ccccc1OCCC(=O)OCC(=O)Nc1ccc(C(N)=O)cc1	2%	0%
CCOc1ccc(C(=O)C[n+]2ccc(C(=O)NCCO)cc2)cc1	-12%	12%
COCCOc1nc2ccccc2nc1C	12%	-7%
CCC(Oc1ccccc1F)C(=O)Nc1ccc2c(c1)n(C)c(=O)n2C (stereo not drawn)	-14%	0%
O=C(COC(=O)c1ccccc1NC(=O)c1ccccc1)c1cccc([N+](=O)[O-])c1	-6%	12%
Cc1ccc(C(=O)N2CCN(c3ccc(NC(=O)c4ccc5c(c4)OCCO5)cc3)CC2)cc1	-4%	-7%
O=C(Nc1ccccc1C(=O)NCc1ccco1)c1ccco1	3%	-8%
Cc1cccc(COc2coc(CN3CCN(C(=O)c4ccco4)CC3)cc2=O)c1	-4%	7%
Cc1nn(CC(=O)O)c(C)c1Cl	-2%	-7%
CCc1ccc(C2=NN(CCC(=O)NC3CC3)C(=O)CC2)cc1	-2%	·
COc1ccc(NC(=O)c2cccnc2)c([N+](=O)[O-])c1	-4%	-1%
COc1cccc(CNC(=O)C2CCCN(c3ncnc4c3nc3n4CCCCC3)C2)c1 (stereo not drawn)	-4%	-8%
Cc1cc2ccccc2n1CCNC(=O)c1ccc(S(=O)(=O)N2CCOCC2)cc1	-11%	2%
COC(=O)c1ccccc1OCCOc1ccccc1C(=O)OC	-1%	-4%
CCCCc1nc(Cl)c(C#N)c2c1CCCC2	0%	-17%
O=C(NCC(c1cccnc1)N1CCN(c2ccc(F)cc2)CC1)c1ccc(F)cc1 (stereo not drawn)	-7%	-13%
NS(=O)(=O)c1ccc(CNC(=O)/C=C/c2cccc(Cl)c2)cc1	-1%	-3%
O=C(CC1CCCCC1)NCCS(=O)(=O)N1CCN(c2ccccc2)CC1	-12%	-11%
CC(C)C12CN3CC(C(C)C)(CN(C1)C3c1ccc3c(c1)OCO3)C2=O (stereo not drawn)	-5%	-1%
C/C(CC(=O)Nc1ccc(N(C)C)cc1)=N\NC(=O)c1ccc([N+](=O)[O-])cc1	-21%	-6%
COCCNC(=S)N/N=C(\C)c1cccc([N+](=O)[O-])c1	-2%	-1%
CCCOc1ccc(/C(O)=C2\C(=O)C(=O)N(CCCOC)C23C(=O)N(C)c2ccccc23)cc1 (stereo not drawn)	-12%	8%
Cc1ccc(C2=NC3(CCCCCC3)NC2=S)cc1	1%	6%
CCSc1nc2ccccc2n1CC(=O)OC	-2%	-1%
Cn1c(=O)c2c(nc(N3CCC(C(N)=O)CC3)n2CCSc2nc3ccccc3s2)n(C)c1=O	0%	19%
COC(=O)C1CCN(C(=O)c2ccc3oc(Cc4ccc(Cl)cc4)nc3c2)CC1	-6%	-14%
CC(C)Cn1c(N)c(-c2nc(C(C)C)c(C(=O)c3ccccc3F)s2)c(=O)n(C)c1=O	-3%	·
Cc1c(Cl)cccc1NC(=O)C1CCCN(S(C)(=O)=O)C1 (stereo not drawn)	1%	-4%

Some of these compounds in order of the KAT2A inh value, smallest number first:
compound	KAT2A inh
C/C(CC(=O)Nc1ccc(N(C)C)cc1)=N\NC(=O)c1ccc([N+](=O)[O-])cc1	-21%
CCCOc1ccc(/C(O)=C2\C(=O)C(=O)N(CCCOC)C23C(=O)N(C)c2ccccc23)cc1 (stereo not drawn)	-12%
COC(=O)C1CCN(C(=O)c2ccc3oc(Cc4ccc(Cl)cc4)nc3c2)CC1	-6%
CCSc1nc2ccccc2n1CC(=O)OC	-2%
Cn1c(=O)c2c(nc(N3CCC(C(N)=O)CC3)n2CCSc2nc3ccccc3s2)n(C)c1=O	0%
Cc1ccc(C2=NC3(CCCCCC3)NC2=S)cc1	1%

Later entries:
SMILES	KAT2A inh	FEN1 inh
CCN(CCCNC(=O)CCn1c(=O)[nH]c2ccccc2c1=O)c1cccc(C)c1	3%	-12%
O=C(COC(=O)CCc1ccccc1)Nc1cc([N+](=O)[O-])ccc1F	-8%	-6%
O=C(NCC1CCCCC1)C1CCN(C(=O)NC2CCCCC2)CC1	2%	14%
Cc1ccccc1NC(=O)c1nn(C)c2c1CS(=O)(=O)c1ccccc1-2	-21%	-2%
CC(C)(C)[C@H]1C=C(C(N)=O)O[C@@H](OCc2ccc(CO)cc2)C1	-4%	9%
CCCC1(C(=O)OCC)NC(c2cc(OC)c(OC)c(OC)c2)C2C(=O)N(CC)C(=O)C21 (stereo not drawn)	-1%	5%
CCCCCCCNc1cccc(C)c1	1%	3%
COc1ccc(C(C[N+](=O)[O-])c2c(C)[nH]c3ccccc23)cc1OC (stereo not drawn)	-12%	-10%
CCN1CCN(C(=O)C2CCC(=O)N(Cc3cccc(C(F)(F)F)c3)C2)CC1 (stereo not drawn)	-2%	2%
CCN(C(=O)C1CCCN1S(=O)(=O)c1cccc2nsnc12)c1ccccc1 (stereo not drawn)	2%	-5%
COC(=O)Cn1c(=NC(=O)CSCC(=O)NC2CCCCC2)sc2cc(OC)ccc21	-5%	0%
CC(OC(=O)CCC1CCCC1)C(=O)Nc1ccccc1[N+](=O)[O-] (stereo not drawn)	-4%	4%
Cn1nnc(NC(=S)NC(=O)c2ccc(-c3ccc(Br)cc3)o2)n1	-1%	8%
Cc1ccc(S(=O)(=O)NCc2ccco2)cc1C	0%	-3%
Cc1ccc(CNC(=O)c2cc3c(-c4ccc(Cl)cc4)nn(C)c3s2)o1	-7%	-21%
O=C1NCCN1Cc1ccc(Cl)cc1	0%	1%
C=CCn1c(SCC(=O)c2c(N)n(C)c(=O)n(C)c2=O)nc2sc(CC)cc2c1=O	-3%	-9%
Nc1cc(=O)[nH]c(SC/C=C/c2ccccc2)n1	-15%	-9%
CN(C)c1ccc(C(CNC(=O)c2ccc(F)cc2)c2c[nH]c3ccccc23)cc1 (stereo not drawn)	-14%	-24%
CN1CCN(c2nc3c(c(=O)[nH]c(=O)n3C)n2CCSc2ncccn2)CC1	-2%	·

Part of the list above in order of number of heavy atoms, smallest number first:
SMILES	KAT2A inh	FEN1 inh
Cc1ccc(S(=O)(=O)NCc2ccco2)cc1C	0%	-3%
CN(C)c1ccc(C(CNC(=O)c2ccc(F)cc2)c2c[nH]c3ccccc23)cc1 (stereo not drawn)	-14%	-24%
COC(=O)Cn1c(=NC(=O)CSCC(=O)NC2CCCCC2)sc2cc(OC)ccc21	-5%	0%

5 entries from above, with two lines to a compound.
Order of values – KAT2A inh, FEN1 inh
Cc1ccc(CNC(=O)c2cc3c(-c4ccc(Cl)cc4)nn(C)c3s2)o1
  -7%, -21%
COC(=O)Cn1c(=NC(=O)CSCC(=O)NC2CCCCC2)sc2cc(OC)ccc21
  -5%, 0%
C=CCn1c(SCC(=O)c2c(N)n(C)c(=O)n(C)c2=O)nc2sc(CC)cc2c1=O
  -3%, -9%
Cc1ccc(S(=O)(=O)NCc2ccco2)cc1C
  0%, -3%
O=C1NCCN1Cc1ccc(Cl)cc1
  0%, 1%

Continued.
SMILES	KAT2A inh	FEN1 inh
COc1cc(C(=O)Nc2ccc(S(=O)(=O)Nc3nccc(C)n3)cc2)cc(OC)c1OC	-16%	0%
CCN(c1ccccc1)S(=O)(=O)c1ccc(Cl)c(C(=O)NCCc2ccc(OC)cc2)c1	-9%	2%
Cc1cccc(C(=O)NCC(=O)N2CCOCC2)c1	-2%	18%
O=C(CCCC(=O)NCCc1ccccc1)NCCc1ccccc1	-6%	8%
Cn1c(N)c(Br)c(-c2ccc(F)cc2)c(C#N)c1=O	-10%	-4%
Cc1ccc(CNC(=O)CCCNS(=O)(=O)c2cccc3nonc23)cc1	-6%	2%
Cn1cnc([N+](=O)[O-])c1N=C(N)N	4%	14%
Cc1ccc(-c2nnn(CC(=O)N3CCC(C)CC3)n2)o1	-4%	1%
O=C1CS/C(=N/N=C2C3CC4CC(C3)CC2C4)N1	2%	1%
CC1(C)CC(=O)C2=C(C1)OC(N)=C(C#N)C2c1ccsc1 (stereo not drawn)	-8%	1%

A second format for some results above:
Structure,KAT2A inh,FEN1 inh
CCN(c1ccccc1)S(=O)(=O)c1ccc(Cl)c(C(=O)NCCc2ccc(OC)cc2)c1,-9%,2%
Cc1cccc(C(=O)NCC(=O)N2CCOCC2)c1,-2%,18%
Cn1cnc([N+](=O)[O-])c1N=C(N)N,4%,14%
Cc1ccc(-c2nnn(CC(=O)N3CCC(C)CC3)n2)o1,-4%,1%
Cn1c(N)c(Br)c(-c2ccc(F)cc2)c(C#N)c1=O,-10%,-4%

(list continues)
SMILES	KAT2A inh	FEN1 inh
CC1CCN(c2nc(-c3ccccc3O)nc3ccccc23)CC1	-1%	-5%
CCCC(=O)Nc1ccc(S(=O)(=O)Nc2cc(OC)ncn2)cc1	-20%	-4%
Cc1ccccc1OCC(=O)NCC(C)(C)N1CCOCC1	-15%	12%
O=C(Nc1cccc(O)c1)C1CCCN1C(=O)OCc1ccccc1 (stereo not drawn)	-4%	4%
CC(C)NC(=O)CC1C(=O)N(Cc2ccccc2)C(C)c2nc3ccccc3n21 (stereo not drawn)	3%	3%
O=C(O)C1(c2ccccc2)CCN(S(=O)(=O)c2ccccc2)CC1	-5%	1%

These rows are one share of the data, and most or all hits are left out here.
